DUX4 inh = blocks DUX4-driven transcriptional activation. 293T-iDUX4 ZSCAN4-Gaussia luciferase reporter, 24 h; active compounds read low. activity change, negative = inhibition, % (no concentration beside the values). 0.8% of 37,000 active. AID 1224904;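 active = -10% or lower and over 25 points stronger than a control reporter; inconclusive = -10% or lower with a smaller gap; inactive = above -10%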;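 also: 0% = median of neutral control wells and -100% = median of positive control wells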
DUX4 inh difference = also measured in DUX4 inh; calls as there; Gaussia minus Italica difference, %; measured here: selective DUX4 reporter inhibition;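 worked out from the two reporters; negative = selective loss of the DUX4 reporter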
DUX4 inh control = second read-out of DUX4 inh, no call of its own (marks repeat the call); activity change, negative = inhibition, %; measured here: Italica tet-on control reporter;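 0 = neutral control and -100 = positive control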
Active calls of the source: *; ? = inconclusive; . = not tested or not shown; & = joins results of further samples. An excerpt (hit frequency here may not be typical).

SMILES	DUX4 inh	DUX4 inh difference	DUX4 inh control
CO[C@H]1CN(C)C(=O)c2cc(NS(C)(=O)=O)ccc2OC[C@@H](C)N(C)C[C@H]1C	7.1	1.9	5.2
O=C(C[C@H]1CC[C@H]2NC[C@H](O)COC[C@@H]2O1)NCc1ccc(Oc2ccccc2)cc1	7.6	1.8	5.8
CO[C@H]1CN(C)C(=O)c2cc(NC(=O)c3ccc4c(c3)OCO4)ccc2OC[C@@H](C)N(CCC(F)(F)F)C[C@@H]1C	?	.	.
O=C(NC1CCCC1)[C@@H]1[C@@H](CO)[C@@H]2Cn3c(cccc3=O)[C@@H]2N1CCc1ccccc1	7.3	6.8	0.6
O=C(C[C@H]1CC[C@H]2[C@@H](COC[C@@H](O)CN2C(=O)c2ccccc2)O1)N1CCOCC1	5.7	9.7	-4.0
C/C=C/c1ccc([C@@H]2[C@@H](CO)N(C(=O)CC3CC3)C23CN(S(C)(=O)=O)C3)cc1	6.0	-3.8	9.8
O=C(C[C@H]1CC[C@H]2NC[C@H](O)COC[C@@H]2O1)NCCc1ccccc1	18.0	8.1	9.9
C/C=C/c1ccc([C@H]2[C@@H](CNC(C)C)N(C(=O)c3ccccn3)[C@H]2CO)cc1	-1.1	-0.2	-0.9
O=C(Nc1nccs1)[C@@H]1[C@@H](CO)[C@@H]2Cn3c(cccc3=O)[C@@H]2N1C(=O)C1CCC1	3.2	2.0	1.1
CCC(=O)Nc1ccc2c(c1)C(=O)N(C)C[C@H](OC)[C@H](C)CN(C(=O)Cc1cccnc1)[C@@H](C)CO2	7.9	8.7	-0.9
CCCNC(=O)N1C[C@H]2[C@@H](c3ccccc31)[C@H](CO)N2C(=O)NCCC	1.9	2.6	-0.7
CCCNC(=O)[C@H]1[C@H](CO)[C@H]2Cn3c(ccc(/C=C/c4ccccc4)c3=O)[C@H]2N1CC1CC1	-8.4	-1.0	-7.4
Cc1noc(C)c1NC(=O)N(C)C[C@@H]1Oc2ccc(NC(=O)Nc3ccc(C(F)(F)F)cc3)cc2C(=O)N([C@@H](C)CO)C[C@@H]1C	0.8	-0.8	1.6
CO[C@H]1CN(C)C(=O)c2ccc(NC(=O)c3cccc(F)c3)cc2OC[C@H](C)N(CC2CC2)C[C@H]1C	-5.8	-2.9	-2.8
COc1ccccc1C#Cc1cnc2c(c1)C(=O)N([C@@H](C)CO)C[C@@H](C)[C@@H](CN(C)S(=O)(=O)c1cn(C)cn1)O2	0.2	-1.6	1.8
O=C(C[C@@H]1C[C@H]2c3cc(NC(=O)NC4CCCC4)ccc3O[C@H]2[C@@H](CO)O1)NCC1CC1	4.5	-1.2	5.7
C[C@@H]1CCCCO[C@@H](CN(C)CC2CCCCC2)[C@H](C)CN([C@@H](C)CO)C(=O)c2cc(NC(=O)CCC(F)(F)F)ccc2O1	-0.9	-2.3	1.4
CO[C@H](CN(C)Cc1ccc(-c2ccccn2)cc1)[C@H](C)CN(C(=O)Nc1ccc(F)cc1)[C@H](C)CO	0.8	-1.8	2.6
Cc1noc(C)c1S(=O)(=O)N(C)C[C@H]1OCc2cn(nn2)CCCC(=O)N([C@@H](C)CO)C[C@@H]1C	4.5	5.3	-0.8
C[C@@H]1CN([C@@H](C)CO)C(=O)c2cc(NC(=O)C3CCCCC3)ccc2O[C@H]1CN(C)C(=O)Nc1ccc(C(F)(F)F)cc1	1.9	1.4	0.5
CO[C@@H]1CC[C@@H]2CCN(C)C(=O)[C@H](C)[C@H](OC)CN(C)C(=O)c3cc(C#N)ccc3OC[C@H]1O2	-2.0	-2.5	0.4
O=C(c1ccc(F)cc1)N1C[C@@H]2N[C@H](C1)C2c1ccc(-c2cccnc2)cc1 (some centres not stated)	-7.8&7.7	-3.7&6.5	-4.1&1.3
CN1C(=O)c2cc(NC(=O)Cc3cccs3)ccc2OC[C@@H]2O[C@@H](CC(=O)NCCc3ccncc3)CC[C@@H]21	1.7	-1.2	2.8
C[C@H]1CN([C@@H](C)CO)C(=O)CCCn2cc(nn2)CO[C@H]1CN(C)C(=O)Nc1ccccc1	0.9	-3.5	4.4
O=C(C[C@H]1CC[C@@H]2[C@H](COC[C@@H](O)CN2C(=O)Nc2ccc(Cl)c(Cl)c2)O1)NCc1ccc(Cl)c(Cl)c1	?	.	.
Next section
SMILES	DUX4 inh	DUX4 inh difference	DUX4 inh control
CCCN1C[C@H](C)[C@H](OC)CN(C)C(=O)c2cc(NC(=O)c3cccc(OC)c3)ccc2OC[C@@H]1C	-2.6	-1.3	-1.3
CCNC(=O)C[C@@H]1CC[C@@H]2[C@H](COc3ccc(NC(=O)c4ccc(F)c(F)c4)cc3C(=O)N2C)O1	-2.0	-1.3	-0.7
COc1ccc2c3c(n(C)c2c1)[C@@H](CO)N(C(=O)Nc1ccc(F)cc1)CC31CCN(S(=O)(=O)c2cccc(C)c2)CC1	?	.	.
O=C(C1CCC1)N1CC2(C1)[C@H](c1ccccc1)[C@H](CO)N2C(=O)c1ccccn1	-0.5	-15.5	14.9
C/C=C/c1cccc(-c2nc(C(=O)NCc3ccccn3)cc3c2[C@H](CCO)N([S@@](=O)C(C)(C)C)C3)c1	1.3	-0.3	1.6
O=C(C[C@@H]1CC[C@H]2[C@@H](COC[C@@H](O)CN2C(=O)c2ccccc2F)O1)NCc1ccc(-c2ccccc2)cc1	-4.5	-0.2	-4.3
Cc1noc(C)c1NC(=O)N(C)C[C@H]1Oc2ccc(N(C)C)cc2CC(=O)N([C@H](C)CO)C[C@H]1C	-4.2	-0.5	-3.6
CCC(=O)N1CC2(C1)CN(C(=O)CN1CCOCC1)[C@@H](CO)c1[nH]c3cc(OC)ccc3c12	5.7	1.8	3.9
CNC[C@H]1Oc2cc(C#CCC3CCCC3)ccc2S(=O)(=O)N([C@H](C)CO)C[C@H]1C	1.5	-1.8	3.3
Cc1ccc(S(=O)(=O)Nc2ccc3c(c2)C(=O)N([C@H](C)CO)C[C@H](C)[C@H](CN(C)Cc2ccc(C(F)(F)F)cc2)O3)cc1	-0.8	-0.1	-0.7
CN1C(=O)c2cc(NC(=O)Cc3ccccc3)ccc2OC[C@H]2O[C@@H](CC(=O)NC3CCC3)CC[C@@H]21	3.0	2.5	0.5
O=C(Cc1ccncc1)N1C[C@@H]2N[C@H](C1)C2c1ccc(-c2ccccc2)cc1 (some centres not stated)	-3.0	-4.8	1.8
COc1ccc(S(=O)(=O)Nc2ccc3c(c2)C(=O)N([C@@H](C)CO)C[C@H](C)[C@H](CN(C)S(=O)(=O)c2ccc(Cl)cc2)OCCCC[C@@H](C)O3)cc1	-0.1	-2.2	2.1
CN(C)C(=O)[C@H]1[C@H](CO)[C@H]2Cn3c(ccc(-c4ccccc4F)c3=O)[C@@H]1N2C(=O)c1cccnc1	9.9	4.9	5.0
COc1ccc(CN2C[C@H](O)COC[C@@H]3O[C@H](CC(=O)N4CCc5ccccc5C4)CC[C@H]32)cc1	?	.	.
N#Cc1cccc(-c2ccc3c(c2)[C@H]2[C@H](CCN2C(=O)c2ccccc2F)[C@@H](CO)N3)c1	-6.8	-7.9	1.1
C[C@H](CO)N1C[C@H](C)[C@@H](CN(C)Cc2cccc(F)c2)OCc2ccccc2-c2ccccc2C1=O	3.9	13.6	-9.7
C[C@@H]1CN([C@H](C)CO)C(=O)c2cc(NC(=O)Cn3cnnn3)ccc2O[C@@H]1CN(C)Cc1ccc(C(=O)Nc2ccccc2N)cc1	-3.3	-2.5	-0.8
CN(C)C(=O)C[C@H]1C[C@H]2c3cc(NC(=O)NC4CCCC4)ccc3O[C@H]2[C@H](CO)O1	4.1	-0.3	4.4
COc1ccc(S(=O)(=O)N2CC[C@@H]3[C@H](CO)Nc4ccc(C#Cc5cccnc5)cc4[C@@H]32)cc1	?	.	.
COc1ccc2c3c(n(C)c2c1)[C@H](CO)N(Cc1cccc(F)c1)CC31CN(C)C1	-2.9	6.3	-9.1
COc1ccccc1-c1ccc([C@H]2[C@H](CO)N3CCCCN(C(=O)CN4CCOCC4)C[C@@H]23)cc1	10.3	3.7	6.6
C[C@H]1CN([C@@H](C)CO)C(=O)CCCn2cc(nn2)CO[C@@H]1CN(C)C(=O)c1ccc(N2CCN(C)CC2)cc1	-6.0	-10.7	4.6
O=C(C[C@@H]1CC[C@H]2[C@@H](COC[C@@H](O)CN2C(=O)Nc2cc(Cl)cc(Cl)c2)O1)N1CCCCC1	5.2	3.6	1.6
C[C@@H]1CCCCO[C@@H](CN(C)C(=O)CCCN(C)C)[C@@H](C)CN([C@H](C)CO)C(=O)c2cc(NS(=O)(=O)c3ccc(Cl)cc3)ccc2O1	-0.7	-0.7	0.0

Whole records, looked up by structure.
Listed for `O=C(C1CCC1)N1CC2(C1)[C@H](c1ccccc1)[C@H](CO)N2C(=O)c1ccccn1` → DUX4 inh: -0.5; DUX4 inh difference: -15.5; DUX4 inh control: 14.9
Listed for `COc1ccc2c3c(n(C)c2c1)[C@H](CO)N(Cc1cccc(F)c1)CC31CN(C)C1` → DUX4 inh: -2.9; DUX4 inh difference: 6.3; DUX4 inh control: -9.1

Additional compounds
SMILES	DUX4 inh	DUX4 inh difference	DUX4 inh control
CO[C@H]1CN(C)C(=O)c2ccc(NS(=O)(=O)c3ccccc3)cc2OC[C@H](C)N(C(=O)NC(C)C)C[C@@H]1C	1.3	-2.1	3.5
CCCC(=O)Nc1ccc2c(c1)OC[C@@H](C)N(Cc1nccs1)C[C@@H](C)[C@H](OC)CN(C)C2=O	4.2	0.9	3.3
c1ncc(-c2ccc(C3[C@@H]4CN(Cc5ccc6c(c5)OCO6)C[C@H]3N4)cc2)cn1 (some centres not stated)	-3.5	-16.7	13.1
CN1C[C@@H]2[C@H](c3ccccc31)[C@@H](CO)N2C(=O)C1CCOCC1	4.7	2.1	2.7
C[C@H]1CN([C@@H](C)CO)C(=O)CCCn2nncc2CO[C@H]1CN(C)Cc1ccccc1C(=O)O	2.1	3.6	-1.5
CC=Cc1ccc2n(c1=O)C[C@@H]1[C@@H](CO)[C@H](C(=O)NCc3ccccn3)[C@H]2N1C (mixture of isomers)	1.2	-2.2	3.4
COc1ccccc1CNC(=O)C[C@H]1C[C@H]2c3cc(NC(=O)C4CCC4)ccc3O[C@H]2[C@@H](CO)O1	3.3	8.4	-5.1
C[C@@H]1CN([C@@H](C)CO)C(=O)c2c(c3ccccc3n2C)-c2ccccc2CO[C@H]1CN(C)Cc1ccc(C(=O)O)cc1	28.6	25.5	3.1
C[C@H]1CN([C@@H](C)CO)C(=O)c2c(c3ccccc3n2C)-c2ccccc2CO[C@H]1CN(C)C(=O)Nc1cccc(F)c1	?	.	.
CC(C)NC(=O)N1[C@H](CO)[C@H](c2ccccc2)C12CN(C(=O)Cc1cccnc1)C2	1.1	-4.8	5.8
COc1ccc(-c2ccc(C3[C@H]4CNC[C@@H]3N4Cc3cccc(OC)c3)cc2)cc1 (some centres not stated)	10.9&0.6	12.1&1.1	-1.2&-0.4
O=C(NCC1CCCCC1)[C@@H]1N[C@@H]2c3ccc(-c4ccccc4F)c(=O)n3C[C@@H]2[C@H]1CO	-4.6	-2.7	-2.0
C[C@@H]1CCCCO[C@H](CN(C)C(=O)c2ccncc2)[C@H](C)CN([C@H](C)CO)C(=O)c2cc(NC(=O)NC3CCCCC3)ccc2O1	0.0	-2.6	2.5
O=C(C[C@@H]1CC[C@H](NC(=O)c2ccc3c(c2)OCO3)[C@H](CO)O1)NCc1ccc(Oc2ccccc2)cc1	-5.3	-2.0	-3.3
CC(=O)N1CC2(C1)[C@@H](c1ccc(-c3cccc(C#N)c3)cc1)[C@@H](CO)N2CCC(F)(F)F	4.7	13.5	-8.8
CC(C)C#Cc1ccc([C@@H]2[C@H]3CN(C(=O)C4CCCCC4)CC(=O)N3[C@H]2CO)cc1	-4.9	-6.8	1.9
COc1ccc2c3c(n(C)c2c1)[C@H](CO)N(C(=O)Nc1ccc(F)cc1)CC31CN(C(=O)Cc2ccncc2)C1	2.8	0.4	2.5
C[C@@H]1CCCCO[C@H](CN(C)C(=O)NC2CCCCC2)[C@@H](C)CN([C@@H](C)CO)C(=O)c2cc(NC(=O)CCC(F)(F)F)ccc2O1	-3.9	-1.6	-2.2
COc1cccc(S(=O)(=O)N2C[C@H](O)COC[C@H]3O[C@@H](CC(=O)Nc4ccccc4)CC[C@@H]32)c1	-1.1	-5.3	4.2
O=C(C[C@H]1C=C[C@H](NC(=O)Nc2ccc3c(c2)OCO3)[C@@H](CO)O1)NCCCN1CCOCC1	-4.6	-4.9	0.3
CCCC#Cc1ccc([C@H]2[C@H](CO)N3C(=O)CN(C(=O)CN4CCOCC4)C[C@@H]23)cc1	18.2	5.4	12.8
CCc1csc(N2[C@H](C#N)[C@H](c3ccc(-c4ccc(F)cc4)cc3)[C@@H]2CO)n1	-1.5	2.4	-4.0
COc1ccccc1-c1ccc([C@@H]2[C@@H](CO)N(C(=O)C3CC3)[C@H]2C#N)cc1	2.8	-1.2	4.0
CC(=O)N1[C@H](CO)[C@@H](c2ccccc2)C12CN(Cc1ccc(Cl)cc1)C2	-6.7	-15.7	9.0
O=C(C[C@@H]1C[C@H]2c3cc(NC(=O)c4cccnc4)ccc3O[C@H]2[C@@H](CO)O1)NCc1cccc(F)c1	5.1	1.6	3.5
C[C@H]1CN([C@@H](C)CO)C(=O)CCCn2cc(nn2)CO[C@H]1CN(C)S(=O)(=O)c1ccc2ccccc2c1	-1.0	0.6	-1.6

Three entries picked at random from those above:
SMILES	DUX4 inh	DUX4 inh difference	DUX4 inh control
O=C(C[C@@H]1C[C@H]2c3cc(NC(=O)c4cccnc4)ccc3O[C@H]2[C@@H](CO)O1)NCc1cccc(F)c1	5.1	1.6	3.5
CC=Cc1ccc2n(c1=O)C[C@@H]1[C@@H](CO)[C@H](C(=O)NCc3ccccn3)[C@H]2N1C (mixture of isomers)	1.2	-2.2	3.4
CCCC#Cc1ccc([C@H]2[C@H](CO)N3C(=O)CN(C(=O)CN4CCOCC4)C[C@@H]23)cc1	18.2	5.4	12.8
